Compound activity: PubChem BioAssay, Johns Hopkins Ion Channel Center
KCNQ2 pot – KCNQ2 (rat) channel potentiation; O88943; CHO-K1 KCNQ2, FluxOR thallium flux fluorescence; stronger effect = higher value; B-score at 10 µM; hit rate 0.54% among 310,000; AID 2239;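 active = fluorescence ratio B-score at least 3 SD of library B-scores, with initial fluorescence B-score within 3 SD, cut at about 5.3 in these data; same plate scores as AID 2156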;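 also: B-score of peak minus minimum over baseline fluorescence ratio after K+ and Tl+ stimulus; positive B-score means potentiation of KCNQ2 with more thallium influx and brighter signal; only the inactives scoring about 0 or higher are listed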
Target sequence (O88943 whole entry, looked up): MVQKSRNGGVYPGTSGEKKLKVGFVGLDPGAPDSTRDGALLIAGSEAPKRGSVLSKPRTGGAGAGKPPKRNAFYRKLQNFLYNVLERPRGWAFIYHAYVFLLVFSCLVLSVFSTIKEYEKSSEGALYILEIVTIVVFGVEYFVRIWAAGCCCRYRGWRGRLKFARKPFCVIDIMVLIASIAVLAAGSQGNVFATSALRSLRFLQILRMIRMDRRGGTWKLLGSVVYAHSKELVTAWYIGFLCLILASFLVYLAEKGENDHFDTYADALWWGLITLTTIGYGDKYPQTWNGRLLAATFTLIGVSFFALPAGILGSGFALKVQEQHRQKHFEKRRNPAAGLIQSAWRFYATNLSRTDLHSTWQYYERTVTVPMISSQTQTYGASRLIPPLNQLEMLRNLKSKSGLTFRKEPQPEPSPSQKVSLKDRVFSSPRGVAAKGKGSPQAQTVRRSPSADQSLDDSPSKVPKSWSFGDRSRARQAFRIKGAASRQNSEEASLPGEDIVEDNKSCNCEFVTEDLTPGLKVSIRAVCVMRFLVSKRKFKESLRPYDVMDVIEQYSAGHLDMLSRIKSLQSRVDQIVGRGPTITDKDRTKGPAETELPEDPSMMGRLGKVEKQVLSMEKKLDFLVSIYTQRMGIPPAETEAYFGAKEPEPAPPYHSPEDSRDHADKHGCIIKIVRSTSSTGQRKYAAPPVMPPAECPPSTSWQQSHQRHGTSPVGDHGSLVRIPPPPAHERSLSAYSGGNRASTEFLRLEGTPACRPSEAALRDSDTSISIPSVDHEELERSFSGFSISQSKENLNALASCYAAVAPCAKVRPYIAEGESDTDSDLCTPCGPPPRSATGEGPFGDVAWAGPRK
KCNQ2 pot baseline – second read-out of KCNQ2 pot, no call of its own (marks repeat the call); B-score; compound at 10 µM; measured here: initial fluorescence intensity artifact check;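 brightness before thallium and not channel activity; 0 = typical well and far values either way flag optical interference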
* marks the source's active call; other numbers are inactive results. Only part of the results is shown. The share of hits here may be higher or lower than overall.

SMILES	KCNQ2 pot	KCNQ2 pot baseline
CCOC(=O)C(=O)Nc1ccc([N+](=O)[O-])cc1OC	0.82	-2
Cn1c(SCC(=O)NCc2ccco2)nnc1-c1ccc(S(=O)(=O)N2CCOCC2)cc1	1.8	0.07
CCOc1ccc(/C(O)=C2/C(=O)C(=O)N(c3cc(C)on3)C2c2ccc(C(=O)OC)cc2)cc1 (stereo not given)	0.02	0.51
CC(=O)Nc1ccc(NC(=O)C2CCN(C(=O)C3CC(=O)N(c4ccc(C)cc4)C3)CC2)cc1 (stereo not given)	1	-0.75
Cc1cccc(C)c1NC(=O)CNc1ncnc2sc(C)c(C)c12	1.1	-0.7
Cc1cc(C)c([N+](=O)[O-])cc1NC(=O)CCSc1ccccc1Cl	2.6	-1.2
Cc1ccc(Cc2cnc(N3C(=N)SC(C)C3=O)s2)cc1 (stereo not given)	0.46	-0.42
C[C@H]1[C@@H](OC(=O)CCC(=O)O)O[C@@H]2OC3(C)CC[C@H]4[C@H](C)CC[C@@H]1[C@@]24OO3	0.65	0.63
COC(=O)c1ccc(N2CCC(c3cc(-c4ccc(OC)cc4)n[nH]3)CC2)c([N+](=O)[O-])c1	1.1	-0.59
O=C1N(c2cccc(Cl)c2)C(c2ccccc2)N2CCCN12 (stereo not given)	0.08	-1.8
O=S(=O)(N1CCOCC1)N1CCCN(S(=O)(=O)N2CCOCC2)CC1	0.29	-1.6
COc1ccc(OCc2nnc(SCC(=O)Nc3ccccc3F)o2)cc1	0.95	0.84
Cc1ccc(S(=O)(=O)N(Cc2nccn2C)C(C)C)cc1	0.51	-0.03
COc1cc(NS(=O)(=O)c2ccc3c(c2)NC(=O)CO3)cc(OC)c1	0.72	-0.75
CC1(c2ccc(Cl)cc2)NC(=O)N(CC(=O)c2ccc3c(c2)OCO3)C1=O (stereo not given)	0.36	0.14
c1ccc(Oc2ccc(-n3cnnn3)cc2)cc1	1.3	1.6
O=C(c1ccc(OC2CCN(Cc3ccccc3O)CC2)cc1)N1CCCCC1	0.74	0.05
Cc1cccc(Nc2ncnc3c2cnn3Cc2ccccc2)c1	0.35	-1.7
CC(=O)Nc1ccc(S(=O)(=O)N2CCN(C)CC2)cc1	0.13	1.6
COc1cc(C2NC(=O)CCC2[N+](=O)[O-])cc(OC)c1OC (stereo not given)	0.94	0.22
COc1cc(CN2CCC(n3nccc3NC(=O)C3CC3)CC2)cc(OC)c1	0.76	-1.3
COc1ccc(CCNC(=O)CCS(=O)(=O)c2ccc(Br)cc2)cc1OC	0.6	-1.1
O=C(O)C1=C[C@@H](C2CC2)C[C@@H](OCc2ccc(CO)cc2)O1	0.21	0.32
Clc1ccc(-c2nc(-c3cc4cc(Cl)ccc4o3)cs2)cc1	0.45	-0.28
COc1ccc(NC(=O)C/C(C)=N/NC(=O)c2ccco2)c([N+](=O)[O-])c1	0.03	-0.57

Reprinted from the part before: seven entries, then new ones.
SMILES	KCNQ2 pot	KCNQ2 pot baseline
CC(=O)Nc1ccc(S(=O)(=O)N2CCN(C)CC2)cc1	0.13	1.6
COc1cc(C2NC(=O)CCC2[N+](=O)[O-])cc(OC)c1OC (stereo not given)	0.94	0.22
COc1cc(CN2CCC(n3nccc3NC(=O)C3CC3)CC2)cc(OC)c1	0.76	-1.3
COc1ccc(CCNC(=O)CCS(=O)(=O)c2ccc(Br)cc2)cc1OC	0.6	-1.1
O=C(O)C1=C[C@@H](C2CC2)C[C@@H](OCc2ccc(CO)cc2)O1	0.21	0.32
Clc1ccc(-c2nc(-c3cc4cc(Cl)ccc4o3)cs2)cc1	0.45	-0.28
COc1ccc(NC(=O)C/C(C)=N/NC(=O)c2ccco2)c([N+](=O)[O-])c1	0.03	-0.57
CCCCNC(=O)CC1N=C2c3ccccc3N=C(SCC(=O)Nc3ccccc3OC)N2C1=O (stereo not given)	0.05	0.64
O=C(O)c1ccc(CSC2CCCCC2)cc1	0.82	-1.4
CCN(C(=O)CN(C)Cc1cccc(Cl)c1Cl)c1c(N)n(Cc2ccccc2)c(=O)[nH]c1=O	0.05	-0.84
O=C(COC(=O)c1cccc(-n2cnnn2)c1)c1ccc(Br)cc1	0.82	0.15
Fc1ccc(-n2c(CN3CCCCC3)n[nH]c2=S)cc1	0.41	-2.1
Cc1ccc(NCC(=O)Nc2cccc(F)c2)cc1S(=O)(=O)N1CCCCCC1	0.23	0.11
Cn1cc(C=O)c2ccccc21	0.44	0.49
COc1cccc(CNc2nc3ccc(C)cc3n3cnnc23)c1	0.16	0.92
Cn1cc(C2=C(c3ccc(Cl)cc3Cl)C(=O)NC2=O)c2ccccc21	0.93	0.01
Cc1ccc(C(c2nnnn2CC2CCCO2)N2CCN(C(=O)c3ccco3)CC2)cc1 (stereo not given)	0.98	-0.91
O=C1/C(=C/c2cccs2)SC(=S)N1c1ccccc1	0.24	0.76
COc1cc(-c2noc(C)c2C#Cc2ccc(N)cc2)cc(OC)c1OC	0.16	-0.08
CCCn1c(O)c(C=Nc2ccccc2)sc1=S	1.3	0.84
Cn1cccc1CNC(=O)Nc1ccc(Cl)cc1	0.58	0
Brc1[nH]nc2ccccc12	0.32	-3
Fc1ccc(/C=N/Nc2cc(N3CCOCC3)ncn2)cc1	0.42	-0.97
COc1ccc(-c2cc3c(=O)n(CC(=O)Nc4ccc(C(C)=O)cc4)ncn3n2)cc1	0.66	0.18
O=C(COC(=O)c1ccc2c(c1Cl)C(=O)c1ccccc1C2=O)NC1CC1	1.1	-0.45
COc1ccc(NC(=O)C2CCN(S(=O)(=O)c3ccc(Br)s3)CC2)cc1OC	0.51	0.37
COc1ccc(C(=O)CSc2nnc(COc3ccc(C#N)cc3)n2-c2ccccc2)cc1	0.28	-1.4
COCCCNC(=O)c1ccccc1NS(C)(=O)=O	0.18	-0.19
COc1ccc(CNC(=O)C/C(C)=N/NC(=O)c2cnccn2)cc1	0.64	-0.1
NNC(=O)c1cc(Cl)ccc1Cl	1.1	-0.64
CC(=O)Nc1ccc(NC(=O)CSc2ccc(-c3ccc(-n4ccnc4)cc3)nn2)cc1	0.43	-0.71
CSc1nc(Oc2ccc3ccccc3c2)c2sccc2n1	0.43	-0.06

The results go on.
SMILES	KCNQ2 pot	KCNQ2 pot baseline
Cc1cc(=O)oc2c(CN3CCCCC3)c(O)c(Cl)cc12	1.3	0.84
Cc1cccc(N2CCN(C(=O)c3cc4c(=O)n(C)c5ccccc5c4n3C)CC2)c1C	0.68	-0.71
COc1ccc(Br)c(C(=O)OCc2cc(=O)oc3cc(C)ccc23)c1	0.02	2.3
CC(=O)c1c(C(C)=O)c(C)n(-c2ccc(C(=O)O)cc2)c1C	0.63	0.86
CC(=O)c1ccn(S(=O)(=O)c2ccc(Cl)cc2)c1	0.48	-1.1
Cc1nn(-c2ccccc2)c(C)c1/C=N/NC(=O)c1cc(-c2ccc(Cl)s2)[nH]n1	1	1.4
CC(=O)Oc1ccc2c(c1)c(C(C)=O)c(C)n2C	0.85	-1.3
CCn1c(-c2cccc(Cl)c2)n[nH]c1=S	0.61	4.9
Cc1ccc(OCC(O)CN2C(=O)NC(C)(C)C2=O)cc1 (stereo not given)	0.08	1.4
CCCCNC(=O)NCCN1CCOCC1	0.35	0
CCn1c(SCCC(=O)O)nnc1-c1cccnc1	1.7	-0.43
Cc1nc(SCC(=O)Nc2ccc(N3CCOCC3)cc2)nc(C)c1C	0.04	-0.96
NNC(=O)CSc1nc(-c2ccccc2)nc2c1CCCC2	1.8	2.1
COCCCn1c(=O)/c(=C\c2ccccc2OC(F)F)s/c1=C(/C#N)C(=O)NCCOC	1.4	0.22
CCc1sc(C(=O)Nc2ccc3c(c2)OCCO3)cc1Br	2	0.35
CCOC(=O)N1CCN(S(=O)(=O)c2c(C)nn(C)c2C)CC1	1.1	-0.56
NS(=O)(=O)c1ccc(N/N=C/c2ccc3c(c2)OCO3)c([N+](=O)[O-])c1	0.8	-0.16
COC(=O)c1sccc1-c1ccc(C(=O)Nc2cccc(Cl)c2)o1	0.22	-0.38
COc1ccc(CC(=O)n2c(CC#N)nc3ccccc32)cc1OC	1.1	0.08
CCOC(=O)c1nc(SC)n(C)c1C(=O)OCC	1.5	-0.17
CN(C(=O)CC1C(=O)NCCN1Cc1cccc(F)c1F)C1CC(C)(C)NC(C)(C)C1 (stereo not given)	1.8	-1.1
CC12CCC3c4ccc(O)cc4CCC3C1CC(O)C2O (stereo not given)	0.32	-0.52
O=C(Cc1nnc(NC(=O)c2ccccc2)s1)N/N=C/c1cccc(O)c1	0.04	1.2
Cc1ncc([N+](=O)[O-])n1CCOC(=O)NC(NCc1cccnc1)C(Cl)(Cl)Cl (stereo not given)	0.31	1.2
CCOc1ccccc1C(=O)NCC(=O)NNC(=O)CN(C)S(=O)(=O)c1ccc(Cl)cc1	0.77	0.65

Going on with the list.
SMILES	KCNQ2 pot	KCNQ2 pot baseline
O=C(Nc1ccc(Cl)cc1)c1cccs1	2	-0.14
Cc1cc(N2CCN(C3CCCCC3)CC2)nc2cccc(O)c12	0.19	2.2
Cn1c(Cn2c(=O)sc3ccccc32)nnc1SCc1ccccn1	0.27	2.3
CSc1nnc(CNS(=O)(=O)c2ccc(Cl)cc2)n1C	0.13	0.62
Cc1nc2ccc(S(=O)(=O)NC(C(=O)Nc3nc4ccc(Cl)cc4s3)C(C)C)cc2s1 (stereo not given)	0.17	-0.8
O=C(CCS(=O)(=O)c1ccc(Br)cc1)N1CCN(c2ccc(Cl)cc2)CC1	0.49	1.6
CCc1cc(C(=O)Nc2cc(S(=O)(=O)N(C)C)ccc2C)sc1C	0.59	-0.94
CCC(C(=O)NC1CCCC1)N(C(=O)c1snc(C(N)=O)c1N)c1ccc(OC)cc1 (stereo not given)	0.71	2.4
C=COCCNC(=S)Nc1cccc(Cl)c1	0.48	-0.8
CC(NC(=O)Cn1ncc(Cl)c(Cl)c1=O)C12CC3CC(CC(C3)C1)C2 (stereo not given)	0.47	-1.4
O=c1c2cc(NC(=S)NC3CCCCC3)ccc2nc2n1CCCCC2	1.7	-0.41
Cc1ccc(C)c(N(CC(=O)NCc2ccccc2)C(=O)c2csnn2)c1	1.4	0.17
Cc1ccc(C)c(S(=O)(=O)N2CCN(C(=O)CCNS(=O)(=O)c3ccc(C)c(C)c3)CC2)c1	1.5	-0.12
CCc1cc(=O)oc2cc(C)cc(OCC(=O)NCc3ccccn3)c12	1.2	-0.45
O=C(c1ccccc1)N1N=C(C(F)(F)F)CC1(O)c1ccc(F)cc1 (stereo not given)	2.5	-2.4
COc1ccc(-c2coc3cc(OC)cc(O)c3c2=O)cc1	0.34	0.49
O=P(CCC(F)(F)F)(CCC(F)(F)F)CCC(F)(F)F	0.35	-0.01
CC(C)c1ccc(OCc2nc(-c3ccccn3)no2)c(Br)c1	0.1	-0.42
CCOC(=O)c1ccc(S(=O)(=O)N2CCN(c3ccccn3)CC2)cc1	0.97	0.59
O=[N+]([O-])c1cc(/C=N/N2CCCCC2)ccc1Cl	0.06	1.5
COc1cccc(CC(NC(C)=O)C(=O)NC2CCN(c3c(Cc4ccccc4)c(C)nc4ncnn34)CC2)c1 (stereo not given)	0.64	0.75
O=C(O)c1nccnc1C(=O)Nc1ccc(Cl)cn1	2.4	-1.4
CSc1nc2ccc(S(=O)(=O)N3CCCCC3)cc2s1	0.87	-0.09
CCCc1cnc(N2CCN(C(=S)NC)CC2)nc1	0.04	0.12
Cn1c(NNC(=O)/C=C/c2ccc3c(c2)OCO3)cc(=O)n(C)c1=O	1.1	-0.7

Reprinted at random: four records from the list
SMILES	KCNQ2 pot	KCNQ2 pot baseline
CCc1cc(=O)oc2cc(C)cc(OCC(=O)NCc3ccccn3)c12	1.2	-0.45
Cc1ccc(C)c(S(=O)(=O)N2CCN(C(=O)CCNS(=O)(=O)c3ccc(C)c(C)c3)CC2)c1	1.5	-0.12
O=c1c2cc(NC(=S)NC3CCCCC3)ccc2nc2n1CCCCC2	1.7	-0.41
O=C(c1ccccc1)N1N=C(C(F)(F)F)CC1(O)c1ccc(F)cc1 (stereo not given)	2.5	-2.4

Later entries:
SMILES	KCNQ2 pot	KCNQ2 pot baseline
O=C(COC(=O)CSc1ccc(Br)cc1)NCc1ccco1	0.35	0.03
CCC(CC)C(=O)N(c1ccc(F)cc1)C1C=CS(=O)(=O)C1 (stereo not given)	0.07	0.18
Cn1c(=O)c2cc(S(=O)(=O)Nc3ccc4c(c3)OCO4)ccc2n(C)c1=O	0.82	-0.18
CCOc1ccc(CCNC(=O)c2ccc3c(=O)n4c(nc3c2)CCCCC4)cc1	0.54	0.02
Cc1nc(Nc2ccc(Cl)cc2)c2oc3ccccc3c2n1	0.35	0.59
COc1ccc(Cl)cc1S(=O)(=O)n1ccnc1C(C)C	1.4	0.53
C/C=C(\C)CN1CCC(n2nccc2NC(=O)c2ccc3c(c2)OCO3)CC1	0.38	1.1
NC(=O)Cn1nc([N+](=O)[O-])nc1Oc1ccc(Br)cc1	1.9	-0.15
N#CCCN(C(=O)COC(=O)c1cccc(S(=O)(=O)N2CCCC2)c1)c1ccc(F)cc1	0.09	0.78
CCC(=O)N1c2ccc(S(=O)(=O)CCC(=O)NCc3ccc4c(c3)OCO4)cc2CC1C (stereo not given)	0.08	-1.2
CC(C)(C)C(=O)OCC1OC(n2cnc(C(N)=O)n2)C(O)C1O (stereo not given)	1.1	1.6
O=C(NCc1ccccc1Cl)/C(=C\c1cccnc1)NC(=O)c1ccccc1	1.5	0.33
CCO[C@@H]1OC(C(N)=O)=C[C@H](c2ccc3c(c2)OCO3)[C@H]1CCCO	0.99	-0.77
COc1ccc(/C=C(/NC(=O)c2ccccc2)C(=O)NCCN2CCOCC2)cc1OC	0.57	1.2
O=C(CCC(=O)OCc1ccc(Cl)cc1)Nc1ccccc1	1.1	-0.19
Cc1cc(N2CCCC2=O)ccc1S(=O)(=O)NCCOc1ccccc1	1.6	-1.1
CC12CN3CCN(CC(C3)/C1=N/N=C/c1cccc([N+](=O)[O-])c1)C2	0.12	-0.02
CC(Sc1ccccc1)C(=O)NN=C1CCCCCC1 (stereo not given)	1.4	-0.96
CNC(=O)COC(=O)/C=C/c1cccs1	1.1	0.26
O=C(Cc1noc2ccccc12)Nc1ccccn1	0.68	0.37
